Screens deposited in PubChem BioAssay by ICCB-Longwood Screening Facility, Harvard Medical School.
Polio RdRp inh: poliovirus RNA polymerase inhibition; P03300; poliovirus polymerase elongation, fluorescence polarization; active compounds read low; % elongation, % (compound at 16.7 µg/mL); actives 0.66% (n = 150,000); in the data active = % elongation below about 90%; note: some results filed as inactive read as strong as hits
Target sequence (P03300 1749-2209 limits assumed): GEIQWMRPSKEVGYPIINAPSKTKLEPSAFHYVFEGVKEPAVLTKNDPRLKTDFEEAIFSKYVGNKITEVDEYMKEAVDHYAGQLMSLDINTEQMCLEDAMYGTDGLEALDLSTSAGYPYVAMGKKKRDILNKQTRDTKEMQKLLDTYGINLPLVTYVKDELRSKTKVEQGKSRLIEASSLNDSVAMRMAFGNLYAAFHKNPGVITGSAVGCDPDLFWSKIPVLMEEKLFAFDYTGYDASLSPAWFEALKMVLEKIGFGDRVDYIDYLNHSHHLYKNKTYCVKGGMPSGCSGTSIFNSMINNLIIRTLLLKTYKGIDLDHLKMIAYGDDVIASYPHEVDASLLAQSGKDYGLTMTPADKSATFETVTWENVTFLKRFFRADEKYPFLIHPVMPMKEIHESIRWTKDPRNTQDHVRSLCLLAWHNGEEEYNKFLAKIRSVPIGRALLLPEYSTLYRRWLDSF
Polio RdRp inh intensity: second read-out of Polio RdRp inh, no call of its own (marks repeat the call); % elongation; measured here: total intensity read-out; formula for this scale not given here;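 total fluorescence in place of polarization; lower means less elongation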
Numbers without * were called inactive.

For O=S(=O)(c1ccc(Cl)cc1)c1nnn2c1nc(N1CCCCC1)c1sccc12 the results were Polio RdRp inh 103 and Polio RdRp inh intensity 106.
Screening O=C(COc1ccc(Cl)cc1)OCc1cc(=O)n2nc(C3CC3)sc2n1 returned Polio RdRp inh 108 and Polio RdRp inh intensity 116.
Screening CC(C)C1N=C2c3ccccc3N=C(SCC(=O)NCc3ccc(F)cc3)N2C1=O (configuration not stated) returned Polio RdRp inh 101 and Polio RdRp inh intensity 107.
Screening Cc1cccc(C(=O)N2CCc3cc(CNS(=O)(=O)c4ccc(Cl)s4)ccc32)c1 returned Polio RdRp inh 112 and Polio RdRp inh intensity 113.
O=C(NCCCc1nc2ccccc2n1Cc1ccc(F)cc1)C1CCCCC1 was read as Polio RdRp inh 107 and Polio RdRp inh intensity 111.
`COc1cc(NC(=O)CCN2CCN(CCO)CC2)cc(OC)c1` gave Polio RdRp inh 99 and Polio RdRp inh intensity 97.
Cc1ccc(SCCNC(=O)CN(c2ccccc2)S(=O)(=O)N(C)C)cc1 was read as Polio RdRp inh 110 and Polio RdRp inh intensity 110.
`CCOCCCn1c(=N)c(C(=O)NC(C)c2ccccc2)cc2c(=O)n3cccc(C)c3nc21` (configuration not stated) gave Polio RdRp inh 106 and Polio RdRp inh intensity 111.
For COC(=O)c1cc2oc3ccccc3c2n1Cc1nc(-c2ccccc2C)oc1C the results were Polio RdRp inh 109 and Polio RdRp inh intensity 105.
`CCOC(=O)c1c(C)oc2nc(C)nc(NCCc3ccc(SC)cc3)c12` gave Polio RdRp inh 113 and Polio RdRp inh intensity 117.
For Cc1ccccc1-c1noc(-c2ccc(NC3CCCC3)c([N+](=O)[O-])c2)n1 the results were Polio RdRp inh 110 and Polio RdRp inh intensity 114.
Screening COc1cccc2sc(N(Cc3cccnc3)C(=O)COc3ccccc3)nc12 returned Polio RdRp inh 104 and Polio RdRp inh intensity 110.
CCCCOC(=O)c1ccc(NC(=O)/C(C#N)=C/c2ccc(-c3ccccc3)o2)cc1 was read as Polio RdRp inh 114 and Polio RdRp inh intensity 116.
O=C(Cn1c(=O)ccc2cc(S(=O)(=O)N3CCCC3)ccc21)Nc1ccc(Cl)cc1 was read as Polio RdRp inh 102 and Polio RdRp inh intensity 107.
Cc1ccccc1C(=O)Nc1cccc(-c2cn3cccnc3n2)c1 was read as Polio RdRp inh 109 and Polio RdRp inh intensity 110.
`Cc1ccc(CNC(=O)CSc2nc3ccccc3nc2Cc2ccc(C)cc2)cc1` gave Polio RdRp inh 99 and Polio RdRp inh intensity 97.
`O=C(NCCSc1c(-c2ccc(Br)cc2)[nH]c2ccccc12)c1ccc(S(=O)(=O)N2CCOCC2)cc1` gave Polio RdRp inh 110 and Polio RdRp inh intensity 112.
Screening COc1ccc2c(c1)CC(C(=O)NCCCN1CCN(c3cccc(Cl)c3)CC1)CO2 (configuration not stated) returned Polio RdRp inh 102 and Polio RdRp inh intensity 105.
`CC(C)COc1ccc(C(=O)Nc2onc3c2CCCC3)cc1` gave Polio RdRp inh 115 and Polio RdRp inh intensity 100.
Cc1ccc2oc(=O)n(CCNC(=O)Nc3ccccc3Cl)c2c1 was read as Polio RdRp inh 98 and Polio RdRp inh intensity 104.
For COC(=O)CS(=O)(=O)c1nc2ccccc2nc1N1CCCCC1 the results were Polio RdRp inh 101 and Polio RdRp inh intensity 102.
Clc1ccccc1N1CCN(Cc2nnc(-c3ccccc3)o2)CC1 was read as Polio RdRp inh 107 and Polio RdRp inh intensity 111.
Screening Cc1ccccc1C(=O)Nc1sc2c(c1C(=O)N1CCCCC1)CCC(C(C)(C)C)C2 (configuration not stated) returned Polio RdRp inh 105 and Polio RdRp inh intensity 108.
Screening Cc1cccc(NC(=O)C2CCCN(S(=O)(=O)c3ccc4c(c3)CCCC(=O)N4)C2)c1 (configuration not stated) returned Polio RdRp inh 108 and Polio RdRp inh intensity 114.
Screening CN(C)c1ccc(CNC(=O)C2COc3ccccc3C2)cc1 (configuration not stated) returned Polio RdRp inh 110 and Polio RdRp inh intensity 109.
For COc1cc(NC(=O)c2sc3nc4n(c(=O)c3c2C)CCCCC4)cc(OC)c1OC the results were Polio RdRp inh 112 and Polio RdRp inh intensity 109.
Screening CC(C)CN(CC(C)C)S(=O)(=O)c1ccc(C(=O)Nc2sc3c(c2C(N)=O)CCN(C(C)C)C3)cc1 returned Polio RdRp inh 96 and Polio RdRp inh intensity 285.
`CCOc1ccccc1CNC(=O)c1cnn(-c2ccc(C)cc2)c1-n1cccc1` gave Polio RdRp inh 101 and Polio RdRp inh intensity 109.
`O=C(CSC1=Nc2ccccc2N=C(c2ccc(F)cc2)C1)Nc1ccc(Cl)cc1` gave Polio RdRp inh 110 and Polio RdRp inh intensity 114.
`COc1ccc(OC)c(NC(=O)c2sc3nc4c(cc3c2N)CCCCCC4)c1` gave Polio RdRp inh 115 and Polio RdRp inh intensity 116.
`CCN(c1ccccc1)c1ccc2cc(S(=O)(=O)N3CCCC3)ccc2n1` gave Polio RdRp inh 109 and Polio RdRp inh intensity 114.
`Cc1cc(C)c(NC(=O)CSc2nc(-c3ccc(F)cc3)nc3c2Cc2c(CO)cnc(C)c2O3)c(C)c1` gave Polio RdRp inh 111 and Polio RdRp inh intensity 113.
Screening COc1ccc(NC(=O)c2cc(S(=O)(=O)N3CCCCCC3)cn2C)cc1Cl returned Polio RdRp inh 104 and Polio RdRp inh intensity 106.
`Cc1ccc(NC(=O)C(c2ccccc2)N2Cc3ccccc3C2=O)cc1Cl` (configuration not stated) gave Polio RdRp inh 110 and Polio RdRp inh intensity 108.
`CCc1ccccc1NC(=O)C(=O)NCCc1sc(-c2cccc(F)c2)nc1C` gave Polio RdRp inh 106 and Polio RdRp inh intensity 109.
`COc1ccc(C)cc1NC(=O)Nc1cc(C(=O)NCc2ccc(C)cc2)ccc1N1CCCC1` gave Polio RdRp inh 100 and Polio RdRp inh intensity 105.
`CCOc1ccc(Nc2nc(C)c(NC(=O)c3cccc(OC)c3)c(Nc3ccc(OCC)cc3)n2)cc1` gave Polio RdRp inh 106 and Polio RdRp inh intensity 102.
`CCOc1ccccc1CNC(=O)c1ccc2nc(Cc3ccc(OC)cc3)oc2c1` gave Polio RdRp inh 103 and Polio RdRp inh intensity 111.
`COc1ccc(Cl)cc1NC(=O)Cn1c2ncccc2c(=O)n1-c1ccc(C)c(C)c1` gave Polio RdRp inh 108 and Polio RdRp inh intensity 112.
CCOc1nc(NC(=O)NS(=O)(=O)Oc2cccc(F)c2)nc(-c2ccccc2)n1 was read as Polio RdRp inh 107 and Polio RdRp inh intensity 109.
`CCn1c(=N)c(C(=O)NCc2ccccc2)cc2c(=O)n3cccc(C)c3nc21` gave Polio RdRp inh 112 and Polio RdRp inh intensity 116.
For CC(C)c1ccc(S(=O)(=O)N2CCC(N3CCN(Cc4ccccc4)C(=O)C3=O)CC2)cc1 the results were Polio RdRp inh 105 and Polio RdRp inh intensity 113.
For Cc1ccc(OCC(=O)N(c2ccc(C)cc2)S(=O)(=O)c2ccc(Cl)cc2)cc1 the results were Polio RdRp inh 101 and Polio RdRp inh intensity 103.
O=C(Cn1ccn(-c2ccc(F)cc2)c(=O)c1=O)Nc1ccccc1C(F)(F)F was read as Polio RdRp inh 104 and Polio RdRp inh intensity 109.
`COc1ccc(CCNC(=O)C2CCN(Cc3nc(-c4ccc(OC)c(OC)c4)oc3C)CC2)cc1OC` gave Polio RdRp inh 107 and Polio RdRp inh intensity 109.
Screening CCS(=O)(=O)c1ncc(Cl)c(C(=O)N2CCN(c3ccc(OC)cc3)CC2)n1 returned Polio RdRp inh 117 and Polio RdRp inh intensity 113.
O=C(O)c1ccc2nc(-c3cc4cc(Cl)ccc4oc3=O)[nH]c2c1 was read as Polio RdRp inh 105 and Polio RdRp inh intensity 113.
`Cc1c(Cl)cccc1NC(=O)Cn1nnc2sc3c(c2c1=O)CCCC3` gave Polio RdRp inh 102 and Polio RdRp inh intensity 104.

An excerpt from above in order of length of the SMILES, falling:
`CCOc1ccc(Nc2nc(C)c(NC(=O)c3cccc(OC)c3)c(Nc3ccc(OCC)cc3)n2)cc1` gave Polio RdRp inh 106 and Polio RdRp inh intensity 102.
`COc1ccc(CCNC(=O)C2CCN(Cc3nc(-c4ccc(OC)c(OC)c4)oc3C)CC2)cc1OC` gave Polio RdRp inh 107 and Polio RdRp inh intensity 109.
For CC(C)c1ccc(S(=O)(=O)N2CCC(N3CCN(Cc4ccccc4)C(=O)C3=O)CC2)cc1 the results were Polio RdRp inh 105 and Polio RdRp inh intensity 113.
`COc1ccc(C)cc1NC(=O)Nc1cc(C(=O)NCc2ccc(C)cc2)ccc1N1CCCC1` gave Polio RdRp inh 100 and Polio RdRp inh intensity 105.
For Cc1ccc(OCC(=O)N(c2ccc(C)cc2)S(=O)(=O)c2ccc(Cl)cc2)cc1 the results were Polio RdRp inh 101 and Polio RdRp inh intensity 103.
Screening CCS(=O)(=O)c1ncc(Cl)c(C(=O)N2CCN(c3ccc(OC)cc3)CC2)n1 returned Polio RdRp inh 117 and Polio RdRp inh intensity 113.
O=C(Cn1ccn(-c2ccc(F)cc2)c(=O)c1=O)Nc1ccccc1C(F)(F)F was read as Polio RdRp inh 104 and Polio RdRp inh intensity 109.
`CCn1c(=N)c(C(=O)NCc2ccccc2)cc2c(=O)n3cccc(C)c3nc21` gave Polio RdRp inh 112 and Polio RdRp inh intensity 116.
Screening COc1ccc(NC(=O)c2cc(S(=O)(=O)N3CCCCCC3)cn2C)cc1Cl returned Polio RdRp inh 104 and Polio RdRp inh intensity 106.
`CCc1ccccc1NC(=O)C(=O)NCCc1sc(-c2cccc(F)c2)nc1C` gave Polio RdRp inh 106 and Polio RdRp inh intensity 109.
`Cc1ccc(NC(=O)C(c2ccccc2)N2Cc3ccccc3C2=O)cc1Cl` (configuration not stated) gave Polio RdRp inh 110 and Polio RdRp inh intensity 108.
`Cc1c(Cl)cccc1NC(=O)Cn1nnc2sc3c(c2c1=O)CCCC3` gave Polio RdRp inh 102 and Polio RdRp inh intensity 104.

New compounds follow.
`COc1ccc(CCNC(=O)CSc2cn(CCNC(=O)c3ccc(OC)c(OC)c3)c3ccccc23)cc1OC` gave Polio RdRp inh 108 and Polio RdRp inh intensity 110.
Screening COc1cc2c(=O)c(C(=O)c3ccc(C)c(C)c3)cn(Cc3ccc(F)cc3)c2cc1OC returned Polio RdRp inh 108 and Polio RdRp inh intensity 111.
Screening Cc1ccc(CNC(=O)Cn2c(=O)ccc3cc(S(=O)(=O)N4CCC(C)CC4)ccc32)cc1 returned Polio RdRp inh 102 and Polio RdRp inh intensity 105.
Cc1cccc(CN2C(=O)N(c3ccc(C(C)C)cc3)S(=O)(=O)c3ccccc32)c1 was read as Polio RdRp inh 113 and Polio RdRp inh intensity 113.
Screening Cc1ccc(C(c2ccccc2)c2c(C)[nH]c3ccccc23)s1 (configuration not stated) returned Polio RdRp inh 107 and Polio RdRp inh intensity 97.
`CNC(=O)CCCN1C(=O)CCn2nc(-c3cn(C)c4ccccc34)cc21` gave Polio RdRp inh 110 and Polio RdRp inh intensity 104.
`COc1ccccc1CNC(=O)CCC(=O)N1Cc2ccccc2Oc2ncccc21` gave Polio RdRp inh 105 and Polio RdRp inh intensity 108.
CCc1nn(CC(=O)N2CCN(c3cccc(C(F)(F)F)c3)CC2)c(=O)c2cc3occc3n12 was read as Polio RdRp inh 106 and Polio RdRp inh intensity 105.
Screening Cc1ccc(-n2nc3ccc(NC(=O)COc4ccccc4)cc3n2)cc1Cl returned Polio RdRp inh 110 and Polio RdRp inh intensity 115.
`COc1cc(OC)c(OC)cc1CN1CCc2nc(N3CCN(c4ccccc4F)CC3)ncc2C1` gave Polio RdRp inh 102 and Polio RdRp inh intensity 106.
O=C(Nc1ccc(Cl)c(C(F)(F)F)c1)C(Cc1ccccc1)NS(=O)(=O)c1cccc2nsnc12 (configuration not stated) was read as Polio RdRp inh 110 and Polio RdRp inh intensity 112.
Screening COc1ccc(NC(=O)C(Cc2ccccc2)n2cccc2)cc1OC (configuration not stated) returned Polio RdRp inh 104 and Polio RdRp inh intensity 106.
CC1=C(c2ccc(F)cc2)S(=O)(=O)NC1=NCc1ccccc1Cl was read as Polio RdRp inh 105 and Polio RdRp inh intensity 99.
`Cc1ccc(CNc2nc3c(S(=O)(=O)c4ccc(C)c(C)c4)nnn3c3ccc(Cl)cc23)cc1` gave Polio RdRp inh 106 and Polio RdRp inh intensity 110.
For Cc1nn(-c2ccccc2)c2sc(C(=O)Nc3cccc(O)c3)cc12 the results were Polio RdRp inh 105 and Polio RdRp inh intensity 110.
Screening CCN(C(=O)Cn1c(=O)n(CC2CCC(C(=O)NC)CC2)c(=O)c2sccc21)c1ccccc1 (configuration not stated) returned Polio RdRp inh 109 and Polio RdRp inh intensity 109.
`Cc1ccccc1-c1nnc(SCC(=O)N2CCCc3ccccc32)o1` gave Polio RdRp inh 108 and Polio RdRp inh intensity 111.
Cc1c(C)n(C)c2ccc(C(=O)NCCc3ccc(Cl)cc3)cc12 was read as Polio RdRp inh 108 and Polio RdRp inh intensity 111.
`COc1ccc(OC)c(Nc2ncc3c(n2)CCN(Cc2cc(OC)c(OC)c(OC)c2)C3)c1` gave Polio RdRp inh 101 and Polio RdRp inh intensity 103.
Screening CCc1ccc(C2=C(C)C(N3CCC(C(=O)Nc4ccc(F)cc4)CC3)=NS2(=O)=O)cc1 returned Polio RdRp inh 104 and Polio RdRp inh intensity 103.
For CCCCN(CC)CCNc1ncnc2onc(-c3ccc(Cl)cc3)c12 the results were Polio RdRp inh 111 and Polio RdRp inh intensity 110.
Screening O=C(OCC1CCCO1)c1ccc2c(c1)N(Cc1ccccc1F)C(=O)c1ccccc1S2(=O)=O (configuration not stated) returned Polio RdRp inh 106 and Polio RdRp inh intensity 107.
Screening CCc1nn(CC(=O)NCCc2ccc(SC)cc2)c(=O)c2cc3sccc3n12 returned Polio RdRp inh 104 and Polio RdRp inh intensity 105.
`COc1cccc2c1Oc1ncccc1N(C(=O)CCC(=O)NCc1ccc(OC(C)C)cc1)C2` gave Polio RdRp inh 110 and Polio RdRp inh intensity 114.
CCOc1ccc(OCCOCCn2c(-c3ccc(Cl)cc3)nc3ccccc3c2=O)cc1 was read as Polio RdRp inh 103 and Polio RdRp inh intensity 105.

A portion of the library; count on the stated rates, not on these rows.
